# B2AR ag: human beta-2 adrenergic receptor agonism by FAP; response, % (no concentration beside the values); P07550; hit rate 0.43% among 340,000; Am2.2-beta2AR cells, FAP receptor internalization, flow cytometry; reference of the scale not given here; AID 504454;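 active = response above a set limit, near 3 SD of response in nonfluorescent compounds, cut at about 42% in these data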;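 note: stock transfer was 100 nL into about 11 µL; a reference agonist was the positive control; negative values mostly stem from fluorescent compounds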
# rRNA inh HTS: inhibitors of bacterial rRNA selective over humanized ribosomes; GFP signal change (wild-type ribosome), % (concentration not given with the values); hit rate 1.6% among 350,000; E. coli WT GFP vs humanized-ribosome RFP mutants, fluorescence, 24 h; active compounds read low; DMSO median 0, no signal -100;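 active = significant combined selectivity score with lowered wild-type GFP, culture density cut under 30%, mutant RFP and density less affected; inactive = any of these conditions unmet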; note: one replicate is shown; some compounds called inactive have numbers as strong as hits
# E coli growth: inhibitors of Escherichia coli growth | hit rate 0.21% among 330,000 | OD600, 23 h; active compounds read low | OD600 absorbance (test concentration not listed);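 active = OD600 absorbance below the run mean of sample wells minus 3.6 SD, in any replicate, cut at about 0.56 in these data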;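 note: stock transfer was 300 nL into about 60 µL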
# UCH37 DUB inh: blocks the human deubiquitinase UCH37; hit rate 0.33% among 330,000; AID 588478; inhibition, % (no concentration beside the values); purified proteasome/UCH37, Ub-AMC cleavage fluorescence;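 active = mean of two replicates above 20%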;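 note: 0% = compound-free wells with enzyme and 100% = wells lacking proteasome; stock transfer was 100 nL into about 20 µL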
# Target sequence (Q9Y5K5 whole entry, looked up): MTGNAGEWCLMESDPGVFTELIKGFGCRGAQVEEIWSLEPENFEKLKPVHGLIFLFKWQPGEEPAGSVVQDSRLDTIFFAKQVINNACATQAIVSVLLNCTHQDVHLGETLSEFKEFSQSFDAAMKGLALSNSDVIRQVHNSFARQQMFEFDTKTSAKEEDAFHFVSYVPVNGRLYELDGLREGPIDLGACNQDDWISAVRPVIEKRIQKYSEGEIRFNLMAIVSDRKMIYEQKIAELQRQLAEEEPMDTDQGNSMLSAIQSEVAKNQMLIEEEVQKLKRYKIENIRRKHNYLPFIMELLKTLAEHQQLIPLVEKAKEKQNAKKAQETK
#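 assay system = human UCH37 enzyme supplied as purified proteasome complex | amount = proteasome at 0.15 nM in the dispensed enzyme solution | schedule = 30 min compound-proteasome preincubation then 25 min substrate reaction, room temperature | measured by = fluorescence, ex 355 nm, em 460 nm | benchmarks = no-proteasome wells (full inhibition) and compound-free wells (no inhibition)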
# FGF22 binding: shifts melting point of recombinant human FGF22; calls only at 9.99 µM; AID 651658; hit rate 1.5% among 340,000; recombinant FGF22 thermal shift, SYPRO orange fluorescence; percent of sucrose octasulfate shift, DMSO zero;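 active = melting point raised past a set limit in the mean and every replicate; three in four hits are not shown here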
# ALR inh: blocks human ALR sulfhydryl oxidase activity; purified ALR, DTT oxidation, H2O2 HRP-luminol luminescence; inhibition, % (no concentration beside the values); hit rate 3.8% among 290,000;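 active = mean and each replicate at 75% or more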;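 note: stock transfer was 7.5 nL into about 7.5 µL; 0% = neutral wells and 100% = wells with inactivated enzyme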
# Target sequence (P55789 whole entry, looked up): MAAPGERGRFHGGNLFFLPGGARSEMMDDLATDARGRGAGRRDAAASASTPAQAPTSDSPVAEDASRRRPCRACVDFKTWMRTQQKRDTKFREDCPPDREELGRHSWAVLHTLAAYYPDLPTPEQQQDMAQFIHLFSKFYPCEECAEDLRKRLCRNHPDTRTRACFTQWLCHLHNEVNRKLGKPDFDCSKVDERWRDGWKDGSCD
# HNF4A DNA FP: change in binding of human HNF4 alpha to DNA | activity change, % at 10 µM | hit rate 0.3% among 360,000 | HNF4a-FITC DNA binding, fluorescence polarization, 1 h | P41235; in the data active = activity change above about 30%, passing the limit was not always enough;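 note: controls were the assay level and a saturating level of protein; the project sought stronger binding though the title names inhibitors; some compounds called inactive have numbers as strong as hits; positive values seem to mean higher polarization but the record does not say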
# Target sequence (P41235 whole entry, looked up): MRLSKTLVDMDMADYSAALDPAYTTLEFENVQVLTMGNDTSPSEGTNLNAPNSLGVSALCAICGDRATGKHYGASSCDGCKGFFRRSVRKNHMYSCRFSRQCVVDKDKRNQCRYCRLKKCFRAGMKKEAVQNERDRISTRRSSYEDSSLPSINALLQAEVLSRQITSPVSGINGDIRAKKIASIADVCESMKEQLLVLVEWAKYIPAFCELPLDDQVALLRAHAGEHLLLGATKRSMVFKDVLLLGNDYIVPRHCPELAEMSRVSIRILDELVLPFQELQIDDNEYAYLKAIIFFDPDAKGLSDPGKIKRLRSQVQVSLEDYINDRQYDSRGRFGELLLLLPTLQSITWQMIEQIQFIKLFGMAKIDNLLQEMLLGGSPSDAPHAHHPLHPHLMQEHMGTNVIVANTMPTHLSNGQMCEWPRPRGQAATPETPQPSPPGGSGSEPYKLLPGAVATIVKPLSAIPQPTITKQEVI
# rRNA inh HTS OD600: recorded beside rRNA inh HTS, whose call it bears; OD600 change, %; measured here: OD600 growth;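 optical density of the mix in the first replicate; 0 = DMSO median and -100 = no signal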
# rRNA inh HTS RFP: also measured in rRNA inh HTS; calls as there; RFP signal change, %; measured here: RFP humanized mutant strains;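 first replicate; 0 = DMSO median and -100 = no signal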
# Numbers without * were called inactive; i = inactive; · = no result given. Not all compounds are listed. The share of hits here may be higher or lower than overall.
canonical_smiles	HNF4A DNA FP	FGF22 binding	rRNA inh HTS	rRNA inh HTS RFP	E coli growth	ALR inh	B2AR ag	UCH37 DUB inh	rRNA inh HTS OD600
O=c1c2ccccc2c(-c2ccccc2)nn1Cc1c(Cl)cccc1Cl	-0.6	·	·	·	0.67	2	8	2.4	·
O=C(Cn1cc2c(n1)CCCC2)NCCCN1CCN(Cc2ccccc2)CC1	0.9	i	4	0.3	0.75	·	-4	3.4	6
Cn1c(=NC(=O)c2cccc([N+](=O)[O-])c2)sc2ccccc21	-0.7	i	7	-1.8	0.74	-3	-2	0.5	11
Cc1ccc(C)c(S(=O)(=O)N2CCN(c3nc(-c4cccnc4)nc4ccccc34)CC2)c1	-1.5	i	·	·	0.73	-2	6	1.3	·
O=CN1CCN(C(=O)c2ccc(-c3nc4ccccc4s3)s2)CC1	1.9	i	5	2.4	·	-8	-11	·	2
COc1ccc(C/C(N)=N/OC(=O)CCc2ccccc2)cc1	4.3	i	-10	-1.7	0.66	·	-3	2.6	-19
CC(C)(C)n1nnnc1C(c1cc2ccccc2o1)N(CCC#N)Cc1ccccc1 (stereo not drawn)	-2.0	i	9	3.4	·	·	·	·	0
O=C(OCC(O)C(O)C(O)C(SCc1ccccc1)SCc1ccccc1)c1ccccc1 (stereo not drawn)	-2.7	i	-14	16	0.7	·	1	1.2	-52
C#CCNC(=O)C1=C[C@H](c2csc3ccccc23)C[C@H](OCCCCO)O1	2.0	i	-5	4.8	·	-6	-4	3.7	-5
COc1ccc(C(=O)Nc2ccccc2C(=O)N2CCCCCC2)cc1	1.5	i	2	-1.2	0.64	-1	0	0.2	3
NC(=S)N/N=C/c1c(O)ccc2ccccc12	-3.3	i	46	0.9	·	-31	13	·	1
NC(=O)CC(NC(=O)Cc1ccc(Cl)cc1)c1ccc(NC2CC3CCC2C3)c([N+](=O)[O-])c1 (stereo not drawn)	2.1	i	2	-0.1	0.68	·	-9	0.6	12
COc1ccc(C(=O)Nc2nc(-c3ccc(OC)cc3)c(-c3ccc([N+](=O)[O-])cc3)s2)cc1	13	·	·	·	0.72	·	17	0.2	·
COc1ccc(CC(=O)Nc2nnc(SCc3ccccc3)s2)cc1S(=O)(=O)N1CCOCC1	6.4	·	·	·	0.77	0	2	-2.4	·
CC(=O)NC(Cc1cnc[nH]1)C(=O)O (stereo not drawn)	-0.2	·	·	·	0.72	-9	2	2.6	·
CC(C)Cn1cnc2sc3c(c2c1=N)CCCC3	0.1	·	·	·	0.68	-3	-17	2.7	·
CC(OC(=O)c1ccc(NS(=O)(=O)c2ccc3[nH]c(=O)[nH]c3c2)cc1)C(N)=O (stereo not drawn)	-2.1	i	5	-2.0	0.7	0	-2	3.4	9
COCCNS(=O)(=O)c1cc2[nH]c3c(c2cc1C)C(=O)CC(C)(C)C3	1.6	i	-1	-3.0	0.67	-16	9	1.6	4
Cn1cccc1C(=O)Nc1nc(-c2ccccn2)cs1	-0.1	·	·	·	0.64	-15	-14	4.1	·
Cc1ccc(SCC(=O)NC(=O)NC2CCCC2)c(C)c1	4.2	·	-7	0.9	0.66	·	4	2.3	-12
O=C(Nc1cc(C(F)(F)F)ccc1N1CCOCC1)c1ccc[n+]([O-])c1	-1.6	·	·	·	0.77	-31	4	3.2	·
CN(C)c1ccc(/C=C/C#N)cc1	4.0	i	13	1.0	0.66	47	6	-50	-2
C=CCNC(=O)CC(=O)N/N=C/c1ccc(C(=O)OC)cc1	3.7	·	·	·	·	-3	0	·	·
CCOC(=O)NC(O)C(=O)c1ccc(F)cc1 (stereo not drawn)	-2.0	·	10	-0.3	0.69	-1	5	3.9	10
O=c1c2ccccc2ncn1CCCSc1ccccc1	3.2	·	·	·	0.7	-32	-18	1.5	·
COc1ccccc1N1CC(C(=O)Nc2nc(C)cs2)CC1=O (stereo not drawn)	3.1	i	2	-0.2	0.65	·	-7	0.9	9
COc1ccc(C(=O)Nc2ccc3c(c2)C(=O)NC3=O)cc1	3.0	i	13	2.4	0.72	·	4	-53	10
CCOC(=O)C1CCN(C(=O)/C=C/c2ccc(S(=O)(=O)N3CCOCC3)cc2)CC1	9.2	i	2	2.7	0.7	1	2	-2.6	5
COC(=O)c1cccnc1-n1c(=O)c2cccnc2n(Cc2ccc(Cl)cc2)c1=O	-0.5	·	·	·	0.73	-12	-15	1.2	·
Cn1c(=O)c2cc(S(=O)(=O)NCCC(=O)N3CC=C(c4ccccc4)CC3)ccc2n(C)c1=O	-1.1	·	·	·	0.7	·	5	4.6	·
COc1ccc(NC(=O)COc2ccccc2F)cc1S(=O)(=O)N1CCCCC1	4.3	i	3	0.9	0.7	-3	0	1.8	-4
Cc1cccc2c(=O)c(C(=O)NCCCN3CCOCC3)c[nH]c12	-1.7	·	·	·	0.66	0	-4	0.7	·
COCCn1c(=S)[nH]c2cc(C(=O)NC3CCCCCC3)ccc2c1=O	-3.7	i	10	1.4	·	·	·	·	16
COc1ccc(-n2cc(CN(C)C(C)c3ccncn3)c(-c3cccc(F)c3)n2)cc1 (stereo not drawn)	0.6	i	-34	-2.8	0.66	-28	5	5.2	-40
Cc1cc2c(cc1C)C(c1ccccc1Br)CC(=O)N2 (stereo not drawn)	0.0	i	·	·	0.66	2	0	1.6	·
COc1cc(NC(=O)COc2ccc(Br)cc2)ccc1NC(=O)C(C)C	-5.6	i	7	-0.4	0.69	-15	-5	-0.6	19
CCCc1nnc(SCC(=O)N2CCOCC2)n1CCCOC	-1.4	·	·	·	0.65	3	-5	2.6	·
CCOCCCNC(=S)Nc1ccc2nc(N3CCOCC3)cc(C)c2c1	-4.4	i	-4	-1.2	0.67	99*	9	-42	-9
COc1ccccc1NC(=O)C1CCCN(S(=O)(=O)c2ccc3[nH]c(=O)ccc3c2)C1 (stereo not drawn)	4.9	i	1	-0.3	0.66	-7	5	1.2	2
Cc1cccc(C(=O)NCCc2nnc(SCC(=O)Nc3cccc(C(=O)O)c3)n2C)c1	0.1	i	5	2.1	0.65	-9	9	-0.2	4
O=C(NC1CCN(Cc2ccc(F)cc2)CC1)c1ccccc1	-4.0	i	5	-1.8	0.69	13	10	1.7	1
O=C(COc1ccccc1)NCCc1cn2ccsc2n1	0.0	i	0	-5.6	0.65	-2	-5	1.8	2
Cc1cc(C)c2cc(C#N)c(NCCCNC(=O)c3cccnc3)nc2c1	0.0	i	11	-0.7	·	·	·	·	8
Cc1ccc(NC(=O)Cn2cncc2-c2ccc([N+](=O)[O-])cc2)cc1C	10	·	·	·	0.82	57	2	-5.7	·
CN(C)S(=O)(=O)c1cccc(NC(=O)CNC2CCCCC2)c1	3.4	i	12	-5.6	0.7	-14	-9	0.3	-1
CC(=O)Nc1c2c(nn1-c1ccccc1)CSC2	1.3	i	3	-2.4	0.73	-2	-1	0.6	10
Clc1cccc(C[n+]2cc(-c3ccccc3)n3c2CCC3)c1	1.8	·	·	·	0.67	-25	-1	2.1	·
COc1ccc(C)cc1NC(=O)CN1CCCN(S(=O)(=O)c2ccc(Br)cc2)CC1	-0.3	i	-8	2.4	0.71	·	-9	2.2	-14
C=CCNC(=O)C1CCN(c2cnccn2)CC1	0.1	i	-18	0.8	0.67	-3	4	-2.0	-15
O=C(CCn1c(=O)c2ccccc2n(CC(=O)NC2CCCC2)c1=O)NCCc1ccc(Cl)cc1	-0.5	·	·	·	0.71	-19	-6	3.4	·

# For convenience, part of the list above.
canonical_smiles	HNF4A DNA FP	FGF22 binding	rRNA inh HTS	rRNA inh HTS RFP	E coli growth	ALR inh	B2AR ag	UCH37 DUB inh	rRNA inh HTS OD600
COc1cc(NC(=O)COc2ccc(Br)cc2)ccc1NC(=O)C(C)C	-5.6	i	7	-0.4	0.69	-15	-5	-0.6	19
CCCc1nnc(SCC(=O)N2CCOCC2)n1CCCOC	-1.4	·	·	·	0.65	3	-5	2.6	·
CCOCCCNC(=S)Nc1ccc2nc(N3CCOCC3)cc(C)c2c1	-4.4	i	-4	-1.2	0.67	99*	9	-42	-9
COc1ccccc1NC(=O)C1CCCN(S(=O)(=O)c2ccc3[nH]c(=O)ccc3c2)C1 (stereo not drawn)	4.9	i	1	-0.3	0.66	-7	5	1.2	2
Cc1cccc(C(=O)NCCc2nnc(SCC(=O)Nc3cccc(C(=O)O)c3)n2C)c1	0.1	i	5	2.1	0.65	-9	9	-0.2	4
O=C(NC1CCN(Cc2ccc(F)cc2)CC1)c1ccccc1	-4.0	i	5	-1.8	0.69	13	10	1.7	1
O=C(COc1ccccc1)NCCc1cn2ccsc2n1	0.0	i	0	-5.6	0.65	-2	-5	1.8	2
Cc1cc(C)c2cc(C#N)c(NCCCNC(=O)c3cccnc3)nc2c1	0.0	i	11	-0.7	·	·	·	·	8
Cc1ccc(NC(=O)Cn2cncc2-c2ccc([N+](=O)[O-])cc2)cc1C	10	·	·	·	0.82	57	2	-5.7	·
CN(C)S(=O)(=O)c1cccc(NC(=O)CNC2CCCCC2)c1	3.4	i	12	-5.6	0.7	-14	-9	0.3	-1
CC(=O)Nc1c2c(nn1-c1ccccc1)CSC2	1.3	i	3	-2.4	0.73	-2	-1	0.6	10
Clc1cccc(C[n+]2cc(-c3ccccc3)n3c2CCC3)c1	1.8	·	·	·	0.67	-25	-1	2.1	·

# More structures follow.
canonical_smiles	HNF4A DNA FP	FGF22 binding	rRNA inh HTS	rRNA inh HTS RFP	E coli growth	ALR inh	B2AR ag	UCH37 DUB inh	rRNA inh HTS OD600
Fc1cccc(Cc2noc(CN3CCSCC3)n2)c1	4.8	i	17	4.6	0.7	-2	21	0.4	20
Cc1ccc(C(=O)CSc2nnc3c4ccccc4nc(Cc4ccccc4)n23)cc1	3.6	i	12	1.4	0.72	-2	-8	1.8	11
CN(/N=C/c1ccc(N(C)C)cc1)C1=NS(=O)(=O)c2ccccc21	204	i	8	4.8	·	-1	0	·	3
COC(=O)c1sccc1NC(=O)c1ccncc1	-3.2	·	·	·	0.68	-3	-1	5.2	·
Cc1cc(S(=O)(=O)N2CCN(c3ccccc3F)CC2)ccc1-n1cnnn1	-2.9	i	3	-1.0	0.61	0	-10	1.9	1
Cc1cn(C2CC(O)C(O)C(CO)O2)c(=O)[nH]c1=O (stereo not drawn)	2.3	i	4	0.0	·	·	·	·	6
O=C(Nc1nnc(-c2ccccc2)o1)C1CCCCC1	-2.3	i	1	0.1	0.68	-13	-7	2.7	4
CN1C[C@@H]2[C@@H]3C(=O)N(C)C(=O)[C@@H]3[C@](Cc3ccccc3)(C1=O)N2C(=O)c1ccccc1	-3.4	i	7	-4.2	·	·	2	3.9	10

# Record cards, from the list above.
# C=CCNC(=O)CC(=O)N/N=C/c1ccc(C(=O)OC)cc1 reads HNF4A DNA FP = 3.7; FGF22 binding = ·; rRNA inh HTS = ·; rRNA inh HTS RFP = ·; E coli growth = ·; ALR inh = -3; B2AR ag = 0; UCH37 DUB inh = ·; rRNA inh HTS OD600 = ·
# Cc1cccc(C(=O)NCCc2nnc(SCC(=O)Nc3cccc(C(=O)O)c3)n2C)c1 reads HNF4A DNA FP = 0.1; FGF22 binding = i; rRNA inh HTS = 5; rRNA inh HTS RFP = 2.1; E coli growth = 0.65; ALR inh = -9; B2AR ag = 9; UCH37 DUB inh = -0.2; rRNA inh HTS OD600 = 4

# Source: PubChem BioAssay
